nsP2pro inh: blocks chikungunya virus nsP2 protease peptide cleavage | FRET peptide cleavage, nsP2pro, fluorescence 1 h | 31,000 tested, 1.1% active | AID 1964107 | Q8JUX6 | Potency, µM (highest dose often 24.9 µM), for the others: at the highest dose activity change, negative = inhibition, hits mostly inhibitors; active means well fitted inhibition curve with a large enough effect; inconclusive means small, poorly fitted or top-dose-only effect; inactive means no such curve, though single readings can be large or run the other way; also: nearly all actives have a fitted effect of over 60% in size; a reference inhibitor and vehicle were the controls
An asterisk follows results filed as active; i = inactive; ? = inconclusive; & = joins results of further samples; [ ] = remark or other dose. % is scaled to controls: 0 for no effect and ±100 for the full control effect; potency is read from the fitted curve at half-maximal effect. An excerpt (hit frequency here may not be typical).

structure: C/C=C(\C)C(=O)OC[C@H]1O[C@@H](O[C@H]2[C@@H](O[C@H]3O[C@H](COC(=O)/C(C)=C/C)[C@@H](O)[C@H](O)[C@H]3O[C@@H]3O[C@H](CO)[C@@H](O)[C@H](OC(=O)/C(C)=C/C)[C@H]3O)O[C@H](COC(=O)/C(C)=C/C)[C@@H](O)[C@@H]2O)[C@H](O)[C@@H](O)[C@@H]1O
  nsP2pro inh: 9%[5.1 µM]

structure: O=C(Nc1ccc([C@@H](O)[C@H]2COCC(=O)N2Cc2ccccc2F)cc1)c1ccc2c(c1)OCO2
  nsP2pro inh: i

structure: O=C(Nc1ccccc1)NC1CCN(CCn2nc3n(c2=O)CCCC3)C1 (configuration not stated)
  nsP2pro inh: i

structure: CCCCCCCCCCCCCCCC(=O)OCC=C(C)C=CC=C(C)C=CC1=C(C)CCCC1(C)C
  nsP2pro inh: -16%

structure: Cc1nnc(-c2cnn(C)c2N)n1CCCc1ccccc1
  nsP2pro inh: 1%

structure: O=C(Nc1cccc([N+](=O)[O-])c1)c1cccc(S(=O)(=O)N2CCCCCC2)c1
  nsP2pro inh: -14%

structure: CCCN(CCc1cccs1)[C@H]1CCc2c(O)cccc2C1
  nsP2pro inh: -8%

structure: CCn1cc(S(=O)(=O)c2cc(C)cc(C)c2)c(=O)c2cc(F)c(N3CCC(C)CC3)cc21
  nsP2pro inh: 0%

structure: COC(=O)C1=CN(CC(=O)N2CCN(c3ccc(F)cc3)CC2)S(=O)(=O)N=C1C
  nsP2pro inh: 0%

structure: CC(C)CCN(C(=O)Nc1ccc(Cl)c(Cl)c1)C(C)c1cccs1 (configuration not stated)
  nsP2pro inh: -29%

structure: CC(C)(CC(=O)NCc1ccc(Cl)cc1Cl)CC1=NS(=O)(=O)c2ccccc2N1
  nsP2pro inh: -18%

structure: Cc1ccc(NC(=O)[C@@H]2CNC[C@H](C(=O)NCc3ccccn3)C2)cn1
  nsP2pro inh: -1%

structure: Cc1cn([C@H]2C[C@H](N[S+](=O)([O-])Cc3cc(Cl)cc(Cl)c3)[C@@H](CO)O2)c(=O)[nH]c1=O
  nsP2pro inh: -13%

structure: CC(C)c1noc(-c2ccn3c(CNC(=O)c4ccoc4)nnc3c2)n1
  nsP2pro inh: -4%

structure: COc1cc(NS(=O)(=O)c2cc(Br)cc3c2N(C(=O)C2CC2)CC3)cc(OC)c1
  nsP2pro inh: ?

structure: Cn1nccc1C(O)c1cc2n(n1)CCN(CC(=O)NCc1ccco1)C2 (configuration not stated)
  nsP2pro inh: ?

structure: Cc1nc2c(c(NC3CC3)n1)CCN(C(=O)CCc1cccnc1)CC2
  nsP2pro inh: -10%

structure: C=C(CCO)C(=O)OCC1OCC(OC(=O)C(=C)CCO[C@@H]2O[C@H](COC(=O)C(=C)CCO[C@@H]3O[C@H](CO)[C@@H](O)[C@H](O)[C@H]3O)[C@@H](O)[C@H](O)[C@H]2O)C(O)C1O (some centres not stated)
  nsP2pro inh: -6%[10 µM]

structure: O=C(Cn1nc(-c2ccccc2)c2cnc3ccc(F)cc3c21)NC1CCCC1
  nsP2pro inh: -21%

structure: CCCCc1oc2ccccc2c1C(=O)c1cc(I)c(OCCN(CC)CC)c(I)c1
  nsP2pro inh: 39%[activator]

structure: Cc1ccc(-c2ccc(=O)n(Cc3cc(C)ccc3C)n2)cc1
  nsP2pro inh: -7%

structure: Cc1cc(CN(C)c2ccc(-c3nc(-c4ccccc4F)no3)cn2)on1
  nsP2pro inh: i

structure: COc1ccccc1-c1cnc2n[nH]c(-c3ccc4c(c3)OCO4)c2n1
  nsP2pro inh: i

structure: COc1ccc(OC(=O)c2nc(SCc3ccc(C)cc3)ncc2Cl)cc1
  nsP2pro inh: -9%

structure: O=C(CSc1nc2c(c(=O)[nH]1)CCC2)Nc1cccc(O)c1
  nsP2pro inh: -24%

structure: Cc1ccc(Cl)cc1Nc1nn2c(=O)c3ccc(C(=O)NC4CCCCC4)cc3nc2s1
  nsP2pro inh: -11%

structure: Cc1ccc(CN2CCN(Cc3ccc(=O)n(C)c3)CC2)cc1
  nsP2pro inh: -21%

structure: COc1ccc(-c2nnc3n2N=C(c2cccc(OC)c2)CS3)cc1
  nsP2pro inh: -1%

structure: O=C1CN(Cc2ccc(-c3ccsc3)cc2)CCN1c1cc(Cl)ncn1
  nsP2pro inh: i

structure: COc1ccc(CN2C(=O)O[C@@H]3CN(c4nc(C)cc(C)n4)C[C@@H]32)cc1OC
  nsP2pro inh: 2%

structure: Cc1ccc(Sc2ccc(N3CCCC(C(=O)Nc4ccc(Cl)cc4)C3)nn2)cc1 (configuration not stated)
  nsP2pro inh: -3%

structure: CN(CC1CCCCO1)C(=O)c1coc(COc2ccc3c(c2)OCO3)n1 (configuration not stated)
  nsP2pro inh: -4%

structure: COC(=O)c1ccc2c(c1)sc(=NC(=O)c1ccc(S(=O)(=O)N3CCCCC3)cc1)n2C
  nsP2pro inh: -3%

structure: CC(=O)Nc1sc2c(c1-c1ncco1)CCNC2
  nsP2pro inh: -4%

structure: CC(=O)Nc1sc2c(c1-c1nc3ccccc3s1)CCN(C)C2
  nsP2pro inh: ?

structure: CC(=O)N1CCN(c2ccc(NCc3ccc(Br)o3)cc2)CC1
  nsP2pro inh: i

structure: COc1ccc2c(c1)c(N1CCCC1=O)c(C(=O)Nc1cc(C)c(Cl)cc1OC)n2C
  nsP2pro inh: -9%

structure: Cc1cc(=O)oc2cc(OCC(=O)Nc3c(C(C)C)cccc3C(C)C)ccc12
  nsP2pro inh: -16%

structure: CCOCCOC1CCN(C(=O)c2cnccn2)CC1
  nsP2pro inh: 1%

structure: CCOC(=O)Cn1c(=O)n(CC2CCCO2)c2nc(-c3cc(OC)ccc3OC)nc(C(N)=O)c21 (configuration not stated)
  nsP2pro inh: -16%

structure: CCOc1ccc(N(C(=O)Cn2nnc3ccccc32)C(C(=O)NCc2ccccc2)c2ccc(OC)cc2)cc1 (configuration not stated)
  nsP2pro inh: -16%

structure: COc1c(C)c2c(c(O)c1C/C=C(\C)CC/C=C(\C)CCC(=O)O)C(=O)OC2
  nsP2pro inh: ?

structure: CCn1c(=O)c2c(cc(C)n2C)n(CC(=O)Nc2ccccc2C)c1=O
  nsP2pro inh: 2%

structure: CC(=O)Nc1ccc(NC(=O)c2cc(-c3ccc4c(c3)OCCO4)on2)cc1
  nsP2pro inh: -9%

structure: Fc1ccc(-c2ccc(CNCCSc3nnnn3-c3ccccc3)o2)cc1
  nsP2pro inh: 13µM*

structure: COC1CCOC2(CCN(C(=O)Cc3ccccc3)CC2)C1 (configuration not stated)
  nsP2pro inh: -10%

structure: CN1C(=O)[C@H]2CN(Cc3cn[nH]c3-c3cccs3)C[C@H]2C1=O
  nsP2pro inh: i

structure: O=C(CCc1nnc2n(Cc3ccccc3Cl)c(=O)c3ccccc3n12)Nc1ccc(F)cc1
  nsP2pro inh: -15%

structure: COc1ccc([C@H]2Cc3cccc(O)c3C(=O)O2)cc1OC
  nsP2pro inh: 2%

structure: CC(=O)NC(c1cc(F)c2cccnc2c1O)C1CC1 (configuration not stated)
  nsP2pro inh: i

Reprinted from the part before: 7 compounds, followed by the next part.
compound | nsP2pro inh
CC(=O)Nc1ccc(NC(=O)c2cc(-c3ccc4c(c3)OCCO4)on2)cc1 | -9%
Fc1ccc(-c2ccc(CNCCSc3nnnn3-c3ccccc3)o2)cc1 | 13µM*
COC1CCOC2(CCN(C(=O)Cc3ccccc3)CC2)C1 (configuration not stated) | -10%
CN1C(=O)[C@H]2CN(Cc3cn[nH]c3-c3cccs3)C[C@H]2C1=O | i
O=C(CCc1nnc2n(Cc3ccccc3Cl)c(=O)c3ccccc3n12)Nc1ccc(F)cc1 | -15%
COc1ccc([C@H]2Cc3cccc(O)c3C(=O)O2)cc1OC | 2%
CC(=O)NC(c1cc(F)c2cccnc2c1O)C1CC1 (configuration not stated) | i
O=C1NCc2ccccc2CC12CCN(Cc1ccsc1)C2 (configuration not stated) | -6%
CN(C)c1ccc(NC(=O)NS(=O)(=O)c2ccc(Cl)cc2)cc1 | 207%[activator]
O=C(c1ccccc1Cl)N1CCCC(C(=O)N2CCC(c3ccccc3)CC2)C1 (configuration not stated) | i
COc1ccc(Nc2ncc3c(n2)CCN(Cc2ccc(Br)s2)C3)c(OC)c1 | -15%
CN1CCC(NC(=O)c2cc(-c3c(O)cc(O)cc3Oc3ccc([N+](=O)[O-])cc3)on2)CC1 | 6%
Cc1cccc(NS(=O)(=O)c2nnc(NC(=O)C3CCCCC3)s2)c1 | -12%
COc1ccc(-n2c(=O)c3ccccc3n(CC(=O)NCCc3ccccc3)c2=O)c(OC)c1 | -16%
CN(CC[C@H]1CN(C(=O)C(C)(C)C)CC[C@H]1CC(=O)O)c1ccccc1 | -30%[39.2 µM]
Fc1ccc(Nc2nc(-c3ccnc(N4CCCCC4)c3)nc3ccccc23)cc1F | -2%
O=C(Nc1ccc(F)cc1F)c1ccc(-n2cnc3cccnc32)cc1 | -15%
Cc1cc(C)c(NC(=O)Nc2csc3c2CCCC3)c(C)c1 | -8%
O=C(c1cccnc1)N1C[C@@H]2OCC(=O)N(c3ccccc3)[C@@H]2C1 | ?

(cont.)
compound | nsP2pro inh
Cn1cc(CN2C[C@H](C(=O)Nc3ccc(F)cc3)C[C@@H]2c2cccc(C(F)(F)F)c2)cn1 | -10%
CCNC(=O)N1CCCCCCNC(=O)[C@@H]2C[C@@H](c3nc(Cc4ccccc4)no3)C[C@@H]21 | -6%
O=C(Cc1ccccc1)NCC1CCCCC(=O)N1 (configuration not stated) | i
Cc1cc(C)c2nc(N3CCCC(C(=O)NCc4ccccc4F)C3)sc2c1 (configuration not stated) | -14%
COc1cccc(C2c3c(ncn(-c4cccc(C#N)c4)c3=N)Oc3ccc4ccccc4c32)c1 (configuration not stated) | -5%
CSc1ccc(CNC(=O)CCn2ccc3cc(S(=O)(=O)N4CCCC4)ccc32)cc1 | -2%
CN(C)c1ccc(C(=O)NCCCCCCC(=O)NO)cc1 | -10%&-7%
O=C(CC1C(=O)OCCN1Cc1ccccc1)Nc1cccc(C(F)(F)F)c1 (configuration not stated) | -16%
CC(=O)NC(c1cc(Cl)c2cccnc2c1O)C(C)C (configuration not stated) | 5%
CC(C)(C)OC(=O)NCC(=O)NNC(=O)C(C(=O)OCc1ccccc1)c1ccccc1 (configuration not stated) | -6%
C[S+](=O)([O-])N1CC2(CCN(Cc3ccc(Cl)cc3)C2)Cc2ccccc21 (configuration not stated) | -2%
CC(=O)N[C@@H](Cc1c[nH]c2ccccc12)C(=O)N[C@@H](CCC(=O)O)C(=O)N[C@@H](Cc1cnc[nH]1)C(=O)N[C@@H](CC(=O)O)C(=O)Nc1ccc2c(C(F)(F)F)cc(=O)oc2c1 | -13%

The listing continues.
compound | nsP2pro inh
CCN(CC)CCS(=O)(=O)[C@@H]1CCN2C(=O)c3coc(n3)CC(=O)C[C@H](O)/C=C(C)/C=C/CNC(=O)/C=C/[C@@H](C)[C@@H](C(C)C)OC(=O)[C@@H]12 | 60%[activator]
O=C1CCCC2=C1C(c1[nH]ncc1Br)N=C(Nc1nc3ccccc3o1)N2 (configuration not stated) | 1%&3%&2%
Cc1c(S(=O)(=O)O)oc2c1C(=O)C(=O)c1c-2ccc2c1CCCC2(C)C | ?
COc1ccc(C(C)(C)C)cc1CN[C@H]1C2CCN(CC2)[C@H]1C(c1ccccc1)c1ccccc1 | 6%&0%
O=C(OCc1ccccc1)N1CCC2(CC1)C(=O)NN=C2C1CC1 | i
FC(F)(F)C(F)(F)C(F)(F)C(F)(F)C(F)(F)C(F)(F)C(F)(F)C(F)(F)Br | -4%
CCCNC(C)(C)COC(=O)c1ccccc1 | 6%
COc1ccc(C2c3c(nc(CCc4ccccc4)[nH]c3=O)Oc3ccc4ccccc4c32)cc1OC (configuration not stated) | ?
CN(C)S(=O)(=O)c1ccc(C(=O)N2CC(=O)Nc3ccc(Br)cc3C2c2ccc(F)cc2)cc1 (configuration not stated) | -17%
COc1cccc(CNC(=O)CNS(=O)(=O)c2ccc3nc(C)sc3c2)c1 | -25%
COc1ccccc1-n1cnc2cccnc21 | 3%[39.2 µM]
COc1ccccc1CN1CCCC(CN(CCN(C)C)C(=O)c2ccccc2OC)C1 (configuration not stated) | -5%

Sorted by molecular weight (lowest first): three of the compounds above
compound | nsP2pro inh
O=C(OCc1ccccc1)N1CCC2(CC1)C(=O)NN=C2C1CC1 | i
Cc1c(S(=O)(=O)O)oc2c1C(=O)C(=O)c1c-2ccc2c1CCCC2(C)C | ?
COc1ccc(C(C)(C)C)cc1CN[C@H]1C2CCN(CC2)[C@H]1C(c1ccccc1)c1ccccc1 | 6%&0%

Returning to the listing; the 2 compounds before the break are reprinted first.
compound | nsP2pro inh
COc1ccccc1-n1cnc2cccnc21 | 3%[39.2 µM]
COc1ccccc1CN1CCCC(CN(CCN(C)C)C(=O)c2ccccc2OC)C1 (configuration not stated) | -5%
Cn1nccc1CCC(=O)N1CCN(C(=O)C2CCC2)[C@@H]2CS(=O)(=O)C[C@@H]21 | i
Cc1cc(C)nc(NC(=S)N2CCN(c3ccc(Cl)c(Cl)c3)CC2)c1 | 0%
O=C(NOCC(O)CO)c1ccc(F)c(F)c1Nc1ccc(I)cc1F (configuration not stated) | -3%
COC(=O)C1=C(C)NC(C)=C(C(=O)OC)C1c1cccc(NC(=O)NCCCN2CCC(c3cccc(OC)c3)CC2)c1 | 10%
